Bioassay records from PubChem BioAssay.
BJeLR viability: MLPCN primary cell-based screen for lethality selective to Ras in HRASV12 cells; actives 0.17% (n = 300,000); BJeLR (HRASV12) viability, CellTiter-Glo ATP luminescence, 48 h; reference of the scale not given here; inhibition, % (test concentration not listed); AID 1554, 2009;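 active = replicate mean above 50%; inconclusive = above 50% but judged a plate artefact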;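 also: 50 nL library stock added to about 25 µL; numbers are from one replicate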
Mtb hypoxia inh: PubChem AID 1159583; actives 0.1% (n = 300,000); M. tuberculosis hypoxia-regulated fluorescent reporter, fluorescence; fluorescence inhibition, % (concentration not given with the values);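 active = 35 to 45% if threefold the growth effect, above 45% if 1.5-fold the growth effect; inactive = the rest, general growth blockers included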;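 also: wells of about 50 µL received 100 nL stock; 0% = vehicle wells and 100% = reference inhibitor wells; whole bacteria with a GFP reporter of the hypoxia response; strong numbers were not always called active; many hits fall short of the cut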
Autofluor counter: flagged as autofluorescent in microsphere protease counterscreen; fluorescence intensity (concentration not given with the values); compound autofluorescence counterscreen, microsphere flow cytometry; active compounds read high; actives 3.1% (n = 360,000); AID 624483;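 active = at least 3 SD above the mean of all compounds, about 16000 in these data; inconclusive = too few beads counted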;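 also: 100 nL of 1 mM stock went into each well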
PrP 5UTR inh: inhibition of PrP 5' UTR reporter expression; cell-based PrP 5' UTR mRNA reporter, plate reader; inhibition, % (concentration not given with the values); actives 0.35% (n = 340,000);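 active = every replicate at 50% or more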;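 also: 0 = median of the neutral control wells; tested in H4 reporter cells; numbers are from one replicate; inactives centre near -14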
ugtP null kill: growth inhibition of ugtP-null S. aureus, primary screen, RN4220 ugtP deletion, OD600 | 16 h; some inactives read as strong as hits | growth inhibition, % (no concentration beside the values) | actives 0.54% (n = 330,000) | AID 1259309, 2017;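 active = z-score under -3 and OD600 up to 0.15 on both plates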;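 also: plate controls were untreated wells for no effect and antibiotic for full effect; wells of about 80 µL received 100 nL stock; the first replicate is given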
Sa RN4220 lethal: growth inhibition of S. aureus RN4220, primary screen, OD600. inhibition, % (no concentration beside the values). AID 1259311, 2017. actives 0.33% (n = 330,000). 16 h;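 active = z-score of -3 or lower and OD600 up to 0.18 on both plates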;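 also: plate controls were untreated cells for no effect and reference antibiotic for full effect; stock transfer was 100 nL into about 80 µL; one replicate is shown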
Mtb hypoxia inh growth: second read-out of Mtb hypoxia inh, no call of its own (marks repeat the call); growth inhibition, %; measured here: M. tuberculosis growth (absorbance);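 0% = vehicle and 100% = reference antibiotic; read after six days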
An asterisk follows results filed as active; u = inconclusive; x = no result given. Hits appear at their usual frequency; overall some 4% were active at least once.

The opening three records, to show the layout:
no.	Structure	BJeLR viability	Mtb hypoxia inh	Mtb hypoxia inh growth	Autofluor counter	PrP 5UTR inh	ugtP null kill	Sa RN4220 lethal
1	CCN1C(=O)CC(N2CCN(c3ccc(Cl)cc3)CC2)C1=O (stereo not given)	10	x	x	4731	-10	2	1.3
2	CCOc1ccc(C(=NO)C(C)NO)cc1 (stereo not given)	x	2	7	x	x	5	4.6
3	COc1ccc(NC(=O)CN(C)C(=O)CCCNC(=O)c2ccc(Cl)cc2)cc1	3	10	5	6479	-3	-4	2.0

The listing, repeating the preview:
no.	Structure	BJeLR viability	Mtb hypoxia inh	Mtb hypoxia inh growth	Autofluor counter	PrP 5UTR inh	ugtP null kill	Sa RN4220 lethal
1	CCN1C(=O)CC(N2CCN(c3ccc(Cl)cc3)CC2)C1=O (stereo not given)	10	x	x	4731	-10	2	1.3
2	CCOc1ccc(C(=NO)C(C)NO)cc1 (stereo not given)	x	2	7	x	x	5	4.6
3	COc1ccc(NC(=O)CN(C)C(=O)CCCNC(=O)c2ccc(Cl)cc2)cc1	3	10	5	6479	-3	-4	2.0
4	COc1ccc(Nc2nnc(-c3ccc(C(N)=O)cc3)c3ccccc23)cc1	-6	6	12	3840	-1	9	0.3
5	COc1cc(C2C(C#N)=C(N)OC3=C2C(=O)CC(C)(C)C3)ccc1OCCN1CCOCC1 (stereo not given)	-4	4	-8	4679	-13	-1	1.5
6	O=C1CC(Sc2nnnn2-c2ccccc2)C(=O)N1c1cccc(Cl)c1 (stereo not given)	20	9	11	2312	-12	-2	-0.4
7	CC(=O)N(C)c1ccc(NC(=S)Nc2ccccc2)cc1	-1	x	x	2120	-23	2	0.8
8	COCCCN1CC(=O)N2C(c3ccc(OC)c(OC)c3)c3[nH]c4ccccc4c3C[C@H]2C1=O (stereo not given in full)	-1	2	-2	3927	-10	0	1.1
9	O=C(NCc1ccccc1)C1COc2ccccc2O1 (stereo not given)	-2	x	x	2943	-26	-4	-4.0
10	Cc1ccc(F)c(Oc2cc(NN3CCCCC3)c([N+](=O)[O-])cc2[N+](=O)[O-])c1	0	6	4	2799	2	-5	18

Next results
no.	Structure	BJeLR viability	Mtb hypoxia inh	Mtb hypoxia inh growth	Autofluor counter	PrP 5UTR inh	ugtP null kill	Sa RN4220 lethal
11	CC(OC(=O)c1cc2sccc2n1C)C(=O)NCc1ccc(F)cc1 (stereo not given)	-5	2	8	4161	-38	0	3.9
12	O=C1CCCC2=C1C(c1ccsc1)CC(=O)N2c1ccccc1F (stereo not given)	3	-2	-5	4405	-26	3	1.7
13	CCOCC(=O)Nc1nnc(Cc2ccc(OC)cc2)s1	-2	16	1	u	-4	4	6.3
14	COc1ccc2nc(Nc3nc(CSc4nnnn4-c4ccccc4)cc(=O)[nH]3)nc(C)c2c1	0	5	0	10731	-48	4	0.4
15	Cc1cc2c(cc1C)/C(=C\C(N)=O)NC(C)(C)C2	-10	x	x	3209	-12	9	0.0
16	CCCCOc1ccc(N=Cc2cccs2)cc1	3	2	2	7331	-1	7	2.7
17	CN(C(=O)c1coc(=O)c2ccccc12)c1ccccc1Cl	1	16	14	4238	-7	9	7.3
18	Cc1csc2sc(-c3ccnc(SCC(=O)NCc4ccccc4)n3)c(C)c12	28	x	x	4350	-17	x	x
19	Cc1nc(NC(=S)NC(=O)c2ccco2)sc1C(=O)N(C)C	2	-10	9	6058	-8	-7	-0.5
20	COc1ccc(NC(=O)CSc2nc(N)c3cc4c(nc3n2)CCCC4)c(OC)c1	0	-1	5	7269	-3	6	0.1

Following part:
no.	Structure	BJeLR viability	Mtb hypoxia inh	Mtb hypoxia inh growth	Autofluor counter	PrP 5UTR inh	ugtP null kill	Sa RN4220 lethal
21	CC(=O)Nc1ccc(NS(=O)(=O)c2cn(C)c(=O)n(C)c2=O)cc1	-2	10	2	4187	13	6	-3.0
22	COc1cc(OC)c(C(=O)OCC(=O)Nc2c(C)n(C)n(-c3ccccc3)c2=O)cc1OC	x	0	8	8807	-5	2	1.9
23	CC(=O)Oc1ccc(C(=O)NCc2ccc3c(c2)OCO3)cc1	-1	-5	2	3855	-9	-4	-0.3
24	CSC1=NCCCN1C(=O)c1c(-c2ccccc2Cl)noc1C	7	8	-4	3356	3	3	6.6
25	CCCNS(=O)(=O)c1ccc(CCC(=O)N2CCN(c3ccc(OC)cc3)CC2)cc1	6	2	9	6924	-19	3	2.4
26	Cn1ccnc1C(=NNC(=O)c1ccc(O)cc1)c1cccc([N+](=O)[O-])c1	x	3	7	x	x	5	10
27	CC(C)(C)C1CCc2onc(C(=O)Nc3cnn(Cc4ccc(F)cc4)c3)c2C1 (stereo not given)	-9	5	-2	18196*	-15	0	-0.3
28	O=C(/C=C/c1ccc(-c2ccccc2[N+](=O)[O-])o1)c1ccc(F)cc1	6	-7	3	7400	-30	-7	31
29	CN(C)/C(=N\S(=O)(=O)c1ccccc1)c1ccccc1	-6	x	x	4841	-12	x	x
30	C#CCNC(=O)C=Cc1ccc(C)cc1	x	21	19	x	x	-1	2.2

Following part.
no.	Structure	BJeLR viability	Mtb hypoxia inh	Mtb hypoxia inh growth	Autofluor counter	PrP 5UTR inh	ugtP null kill	Sa RN4220 lethal
31	COc1ccc(N2CC(NC(=O)NC(C)(C)C)CC2=O)cc1 (stereo not given)	-10	11	3	2625	-21	6	2.9
32	O=C(Nc1ncnc2c1CCC2)C12CC3CC(CC(C3)C1)C2	-5	6	3	9189	-3	4	3.2
33	Cc1ccc(C2=N/C(=C\c3ccc(F)cc3)C(=O)N2)cc1	x	3	-2	6723	-32	-12	-11
34	CC(CC(=O)N1CCN(c2ccccc2)CC1)S(=O)(=O)c1ccc2c(c1)NC(=O)CS2 (stereo not given)	10	-2	0	6018	-12	2	1.1
35	COc1ccc(/C=C2\S/C(=N/S(=O)(=O)c3cccs3)NC2=O)cc1	-1	-3	6	4115	-10	25	23
36	O=C1CCC(c2ccc(-n3ccnc3)cc2)=NN1	7	-2	2	5983	1	4	5.1
37	CC(Cc1ccccc1)NC(=O)C1(c2ccccc2)CCOCC1 (stereo not given)	-7	0	2	22824*	-26	-15	5.6
38	O=C1CCC(c2ccccc2)=NN1	3	0	2	4253	-2	4	5.2
39	COc1ccc(CCNC(=O)CSc2ccc3nnc(CCNC(=O)c4ccc(C)cc4)n3n2)cc1OC	-4	3	0	6025	7	4	0.8
40	CN(CC1CCOCC1)C(=O)CC1C(=O)NCCN1Cc1cccc(Oc2ccccc2)c1 (stereo not given)	-1	10	9	3107	-15	0	2.4

5 compounds picked at random from the list so far:
no.	Structure	BJeLR viability	Mtb hypoxia inh	Mtb hypoxia inh growth	Autofluor counter	PrP 5UTR inh	ugtP null kill	Sa RN4220 lethal
38	O=C1CCC(c2ccccc2)=NN1	3	0	2	4253	-2	4	5.2
34	CC(CC(=O)N1CCN(c2ccccc2)CC1)S(=O)(=O)c1ccc2c(c1)NC(=O)CS2 (stereo not given)	10	-2	0	6018	-12	2	1.1
33	Cc1ccc(C2=N/C(=C\c3ccc(F)cc3)C(=O)N2)cc1	x	3	-2	6723	-32	-12	-11
32	O=C(Nc1ncnc2c1CCC2)C12CC3CC(CC(C3)C1)C2	-5	6	3	9189	-3	4	3.2
36	O=C1CCC(c2ccc(-n3ccnc3)cc2)=NN1	7	-2	2	5983	1	4	5.1

Continued.
no.	Structure	BJeLR viability	Mtb hypoxia inh	Mtb hypoxia inh growth	Autofluor counter	PrP 5UTR inh	ugtP null kill	Sa RN4220 lethal
41	Cc1ccc(S(=O)(=O)N2CCC(O)(c3cccnc3)CC2)cc1	-8	10	3	6170	-30	5	3.3
42	Cc1cccc(-c2nc(C#N)c(N3CCCCCC3)o2)c1	-5	3	1	7393	-48	7	12
43	O=C(CC1CC=CCCC(Cc2ccc(F)cc2)C(=O)OCC(Cc2ccccc2)NC1=O)NC(CO)Cc1ccccc1 (stereo not given)	x	10	11	x	x	-12	5.4
44	CC1=C(C(N)=O)C(c2ccc(Cl)cc2)n2nc(CCCO)nc2N1 (stereo not given)	8	3	3	3823	-6	6	1.7
45	COc1cccc(CNC(=O)CCc2nnc(C3CCCCC3)o2)c1	4	16	-2	6020	-9	6	3.8
46	COc1cc(-c2nc(CN(C)C(C)c3ccncn3)c(C)o2)ccc1F (stereo not given)	2	5	-6	2675	-10	0	0.3
47	Cc1cccc(C2=NN(c3ccc(Br)cc3)C(C(=O)N3CCOC3=O)C2c2ccc(F)cc2)c1 (stereo not given)	x	-3	-1	x	x	2	-0.1
48	Cc1ccccc1-c1nnc(SCC(=O)N(C)c2c(N)n(Cc3ccccc3)c(=O)[nH]c2=O)n1C	2	-3	0	6268	-19	4	5.4
49	O=C(c1ccc(Cl)cc1)N1CCN(c2cccc3[nH]ccc23)CC1	-4	14	-4	4226	-14	6	3.7
50	O=C(Cc1csc(NC(=O)c2ccccc2)n1)NO	5	6	17	4818	-11	11	2.2

(further entries)
no.	Structure	BJeLR viability	Mtb hypoxia inh	Mtb hypoxia inh growth	Autofluor counter	PrP 5UTR inh	ugtP null kill	Sa RN4220 lethal
51	COc1cc(NC(=O)c2cccs2)c(C(=O)OCC(=O)c2cc(C)n(-c3ccccc3)c2C)cc1OC	0	0	9	2540	71*	1	3.1
52	Nc1cc(Cl)ccc1C(=O)OCC(=O)NCc1cccs1	x	10	2	6223	-6	-1	4.8
53	CC(C)CC(=O)CC1(O)C(=O)Nc2ccccc21 (stereo not given)	4	10	1	4602	-13	-6	2.8
54	CCc1nnc(NN=Cc2c(Cl)cccc2Cl)n1N	x	2	3	x	x	-5	-0.3
55	O=C(COC(=O)Cc1ccccc1F)Nc1ccc2c(c1)OCO2	-2	-7	2	3258	-27	3	12
56	COc1cccc(CNC(=O)Cn2nc(-c3ccc(Cl)cc3)ccc2=O)c1	x	2	6	21110*	-41	-15	-3.3
57	Cc1cccn2c(CNCCCOc3cccnc3)c(C(=O)N3CCOCC3)nc12	8	-3	8	4353	-25	10	0.7
58	COc1ccc(C2C(CC(=O)O)=C(O)C(=O)N2c2ccccc2)cc1 (stereo not given)	-4	19	8	3135	-28	-6	-11
59	S=c1[nH]nc(-c2n[nH]c3c2CCC3)n1N=C/C=C/c1ccccc1	x	13	15	x	x	-4	2.3
60	CCOc1ccc(-c2cc(CCCC(=O)NCc3ccco3)no2)cc1	-4	1	14	6029	22	5	-8.1

Additional records.
no.	Structure	BJeLR viability	Mtb hypoxia inh	Mtb hypoxia inh growth	Autofluor counter	PrP 5UTR inh	ugtP null kill	Sa RN4220 lethal
61	COC(=O)C1C[C@@]2(O)C(O)C(O)C(O)CC2N1Cc1cc(F)ccc1F (stereo not given in full)	x	5	5	x	x	-2	8.6
62	O=C1CCCN1c1ccc(S(=O)(=O)NCc2ccc(F)cc2)cc1	4	2	4	6113	2	1	4.4
63	CCN(CC(=O)Nc1ccc(NC(C)=O)cc1)C(=O)CN1C(=O)NC(C)(c2ccc3ccccc3c2)C1=O (stereo not given)	x	-5	-4	3049	7	-7	-6.5
64	CCOC(=O)C1CCCN(C(=O)c2cccc(S(=O)(=O)N(C)c3ccc(OC)cc3)c2)C1 (stereo not given)	x	6	8	x	-7	8	6.5
65	Cc1ccccc1OCC(=O)Nc1ccc2c(c1)C(=O)c1ccccc1C2=O	-1	6	11	2023	-28	10	20
66	COc1ccccc1C1=CC(=O)CC(c2ccc3c(c2)OCO3)C1 (stereo not given)	x	10	3	x	x	6	6.6
67	O=C(c1cc(Cl)nc2ccccc12)N1CCN(S(=O)(=O)c2ccccc2[N+](=O)[O-])CC1	2	6	10	5988	-9	5	-3.2
